Assay outcomes: PubChem, several laboratories
TRPN1 ag: zebrafish TRPN1 channel agonists, primary screen, cell-based, HEK293, calcium fluorescence. HEK293 zebrafish TRPN1-YFP, Fluo-8 calcium fluorescence; 100% = response to 87 µM carbachol. AID 1424, 2008. activation, % at 3 µM. 220,000 compounds, 0.18% hits;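 active = activation above its plate's cutoff, the mean activation of test wells on that plate plus 3 SD, cut at about 19% in these data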;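 also: 0% = DMSO alone and 100% = 87 µM carbachol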
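Material: zebrafish TRPN1-YFP in HEK293 cells. Doses: one dose of 3 µM, 0.3% DMSO. Incubation: dye 1 h 37 °C plus 30 min RT. Measured by: intracellular calcium fluorescence with Fluo-8.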
EBV gp42 inh: Epstein-Barr virus gp42 inhibitors, primary screen, biochemical, uHTS, fluorescence polarization; Fluorescence polarization binding assay, mP read-out; AID 1085, 2008; inhibition, % (tested at 21.74 µM); Glycoprotein 42 (Epstein-Barr virus (strain AG876)), Q1HVG2; 220,000 compounds, 0.42% hits; in the data active = inhibition above about 50%
Target sequence (Q1HVG2 whole entry, looked up): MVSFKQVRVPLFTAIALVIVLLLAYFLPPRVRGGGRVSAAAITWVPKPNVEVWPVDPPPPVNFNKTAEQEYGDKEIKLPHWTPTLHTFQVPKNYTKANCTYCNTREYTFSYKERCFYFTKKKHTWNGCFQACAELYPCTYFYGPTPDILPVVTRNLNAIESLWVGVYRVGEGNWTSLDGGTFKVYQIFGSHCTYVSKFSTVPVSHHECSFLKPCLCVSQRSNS
KCC2 mod: KCC2 cotransporter modulators, thallium flux, primary screen, cell-based, HEK293 KCC2, FluoZin-2 fluorescence, MLSMR; Solute carrier family 12 member 5 (Homo sapiens), Q9H2X9; KCC2 cells, thallium flux FluoZin-2 fluorescence; B-score of Tl+ flux slope (higher = more flux/activation; lower = inhibition) at 10 µM; 190,000 compounds, 2.2% hits; AID 1456, 2008;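 active = thallium flux slope and its plate-corrected score both differing from the plate sample mean at a set confidence after two filtering rounds, in either direction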;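 also: slope of fluorescence scaled to starting intensity during 10 to 20 s after thallium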
Furin inh: human furin inhibitors, primary screen, biochemical, fluorescence intensity. purified furin, fluorogenic substrate cleavage. inhibition, % at 30 µM. P09958. AID 463115, 2010. 220,000 compounds, 0.061% hits; in the data active = inhibition above about 25%; also: inactives centre near -15
Target sequence (P09958 108-714 limits assumed): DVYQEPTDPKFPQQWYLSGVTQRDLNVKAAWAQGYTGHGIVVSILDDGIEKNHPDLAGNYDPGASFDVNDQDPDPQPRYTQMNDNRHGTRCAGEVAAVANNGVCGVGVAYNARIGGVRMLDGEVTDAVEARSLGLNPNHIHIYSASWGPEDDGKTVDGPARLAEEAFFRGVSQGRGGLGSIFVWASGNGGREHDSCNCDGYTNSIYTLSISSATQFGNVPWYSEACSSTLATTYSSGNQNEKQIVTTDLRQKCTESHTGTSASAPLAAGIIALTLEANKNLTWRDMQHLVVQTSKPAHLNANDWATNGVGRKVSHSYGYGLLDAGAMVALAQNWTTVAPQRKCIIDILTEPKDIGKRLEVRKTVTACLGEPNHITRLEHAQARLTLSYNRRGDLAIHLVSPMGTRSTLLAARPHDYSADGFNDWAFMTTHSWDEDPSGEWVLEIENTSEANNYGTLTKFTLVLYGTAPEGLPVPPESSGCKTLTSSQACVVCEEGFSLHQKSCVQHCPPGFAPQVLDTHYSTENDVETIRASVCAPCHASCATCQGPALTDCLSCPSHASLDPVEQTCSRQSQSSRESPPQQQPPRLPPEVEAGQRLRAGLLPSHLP
PPC-1+TRAIL kill: compounds killing PPC-1 cancer cells with TRAIL present, primary screen, TRAIL potentiator project, ATPLite luminescence, uHTS. AID 1443, 2008. PPC-1 cells + TRAIL, ATPLite viability luminescence. cell killing (% activity), % at 4 µM. 220,000 compounds, 0.41% hits;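 active = cell killing above 50% in the first pass at 4 µM, then a duplicate retest at 5 µM averaging 50% or more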;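 also: plate controls were cells with TRAIL plus DMSO for no effect and medium-only wells lacking cells for full effect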
m-calpain inh: inhibitors of pig calpain II, primary screen, biochemical, fluorogenic peptide substrate, 1536-well. purified calpain II, 30 min. inhibition, % at 16 µM. 220,000 compounds, 0.37% hits. AID 1236, 2008;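 active = inhibition above about 50%, limit read from the data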
TRPML3 ag: human TRPML3 channel agonists, primary screen, cell-based, HEK293 TRPML3-YFP, Fluo-8 calcium fluorescence, 3 µM; AID 1448, 2008; Mucolipin-3 (Homo sapiens), Q8TDD5; 220,000 compounds, 0.29% hits; activation, % at 3 µM; 100% = the carbachol control signal;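 active = activation above its plate's cutoff, the mean activation of the plate's test wells plus 3 SD, cut at about 12% in these data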;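 also: 0% = DMSO only wells and 100% = carbachol wells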
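Test system: HEK293 cells stably carrying human TRPML3-YFP; Doses: single dose, 3 µM final nominal compound, 0.3% DMSO final; Schedule: dye loading 1 h 37 °C then 30 min ambient, 125 s read; Technique: Fluo-8 calcium fluorescence; Benchmarks: high control carbachol 87 µM, low control DMSO.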
TbHK1 inh: Trypanosoma brucei hexokinase 1 inhibitors, primary screen, biochemical, G6PDH-coupled NADH absorbance, MLSCN library | recombinant TbHK1, G6PDH-coupled NADH A340 | inhibition, % at 10 µM | 220,000 compounds, 0.11% hits | AID 1430, 2008;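 active = inhibition of 50% or more in the single-dose primary screen; inactive = inhibition below 50%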
Numbers without * were called inactive; [ ] = another dose, or the depositor's remark. Only part of the results is shown (hit frequency here may not be typical).

The first three records, ahead of the listing:
How did Clc1ccc(-n2cnnn2)cc1 do in these assays?
TRPN1 ag: 0.4; EBV gp42 inh: -14; KCC2 mod: 1.3; Furin inh: -13; PPC-1+TRAIL kill: 9; m-calpain inh: -3; TRPML3 ag: 0.8; TbHK1 inh: 12

How did O=c1oc(-c2ccccc2[N+](=O)[O-])nc2ccccc12 do in these assays?
TRPN1 ag: -0.2; EBV gp42 inh: -15; Furin inh: -12[20 µM]; PPC-1+TRAIL kill: 2; m-calpain inh: -4; TRPML3 ag: 0.3; TbHK1 inh: 4

What do the screens show for `CC(=O)OCC(=O)C1(O)CCC2C3CCC4=CC(=O)C=CC4(C)C3C(O)CC21C` (centres undefined)?
TRPN1 ag: 1.3; EBV gp42 inh: 8; KCC2 mod: -0.18; Furin inh: -4; PPC-1+TRAIL kill: 18; m-calpain inh: 28; TRPML3 ag: 0.8; TbHK1 inh: -5

This part in full, previewed entries included:
How did Clc1ccc(-n2cnnn2)cc1 do in these assays?
TRPN1 ag: 0.4; EBV gp42 inh: -14; KCC2 mod: 1.3; Furin inh: -13; PPC-1+TRAIL kill: 9; m-calpain inh: -3; TRPML3 ag: 0.8; TbHK1 inh: 12

How did O=c1oc(-c2ccccc2[N+](=O)[O-])nc2ccccc12 do in these assays?
TRPN1 ag: -0.2; EBV gp42 inh: -15; Furin inh: -12[20 µM]; PPC-1+TRAIL kill: 2; m-calpain inh: -4; TRPML3 ag: 0.3; TbHK1 inh: 4

What do the screens show for `CC(=O)OCC(=O)C1(O)CCC2C3CCC4=CC(=O)C=CC4(C)C3C(O)CC21C` (centres undefined)?
TRPN1 ag: 1.3; EBV gp42 inh: 8; KCC2 mod: -0.18; Furin inh: -4; PPC-1+TRAIL kill: 18; m-calpain inh: 28; TRPML3 ag: 0.8; TbHK1 inh: -5

Results for c1coc(CNc2ncnc3nc[nH]c23)c1 ?
TRPN1 ag: 0.1; EBV gp42 inh: -3; KCC2 mod: 1.2; Furin inh: -28; PPC-1+TRAIL kill: 17; m-calpain inh: 8; TRPML3 ag: 0.7; TbHK1 inh: -5

What do the screens show for `COC(=O)C1C(O)CCC2CN3CCc4c([nH]c5ccccc45)C3CC21` (centres undefined)?
EBV gp42 inh: 16; KCC2 mod: 0.5; Furin inh: -6; PPC-1+TRAIL kill: -3; m-calpain inh: -7; TbHK1 inh: -11

How did Cc1ccc(C(=O)n2nc(-c3ccco3)nc2N)cc1 do in these assays?
TRPN1 ag: 1.6; EBV gp42 inh: -9; KCC2 mod: 0.48; Furin inh: -26[20 µM]; PPC-1+TRAIL kill: -5; m-calpain inh: -19; TRPML3 ag: 0.7; TbHK1 inh: 3

Results for COc1ccc2c3c1OC1CC(O)C=CC31CCN(C)C2 (centres undefined) ?
TRPN1 ag: 1.9; EBV gp42 inh: -1; KCC2 mod: 1.5; Furin inh: -6; PPC-1+TRAIL kill: 9; m-calpain inh: 10; TRPML3 ag: 0.6; TbHK1 inh: -1

What do the screens show for `Nc1nc(C(=O)N2CCOCC2)nn1C(=O)c1ccc(Cl)cc1`?
TRPN1 ag: -1.0; EBV gp42 inh: -10; KCC2 mod: 0.091; Furin inh: -10; PPC-1+TRAIL kill: -6; m-calpain inh: -12; TRPML3 ag: -0.1; TbHK1 inh: -7

Results for COc1ccc2cc3[n+](cc2c1OC)CCc1cc2c(cc1-3)OCO2 ?
TRPN1 ag: -0.1; EBV gp42 inh: -17; KCC2 mod: 0.33; Furin inh: 8; PPC-1+TRAIL kill: -6; m-calpain inh: 8; TRPML3 ag: 0.9; TbHK1 inh: -48

What do the screens show for `COc1ccccc1C(=O)n1nc(-c2ccco2)nc1N`?
TRPN1 ag: -1.1; EBV gp42 inh: -24; KCC2 mod: 0.74; Furin inh: -16[20 µM]; PPC-1+TRAIL kill: 1; m-calpain inh: 2; TRPML3 ag: 0.9; TbHK1 inh: 0

What do the screens show for `CCCC(=O)n1nc(-c2ccco2)nc1N`?
TRPN1 ag: -0.1; EBV gp42 inh: -1; KCC2 mod: 0.91; Furin inh: -19[20 µM]; PPC-1+TRAIL kill: 5; m-calpain inh: 20; TRPML3 ag: 0.4; TbHK1 inh: -3

How did COc1ccc(C(=O)n2ncc(C#N)c2N)cc1 do in these assays?
TRPN1 ag: 0.2; EBV gp42 inh: -21; KCC2 mod: 1.3; Furin inh: -19; PPC-1+TRAIL kill: 12; m-calpain inh: -32; TRPML3 ag: 0.3; TbHK1 inh: -1

What do the screens show for `O=C(c1ccccc1)n1nnc2ccccc21`?
TRPN1 ag: 0.9; EBV gp42 inh: 0; KCC2 mod: -1.1; Furin inh: -20[20 µM]; PPC-1+TRAIL kill: 17; m-calpain inh: -3; TRPML3 ag: 1.1; TbHK1 inh: 1

What do the screens show for `CCCCn1nnc(N(C(=O)c2cccs2)C(=O)c2cccs2)n1`?
TRPN1 ag: -0.8; EBV gp42 inh: -4; KCC2 mod: -0.93; Furin inh: -23; PPC-1+TRAIL kill: 17; m-calpain inh: -12; TRPML3 ag: 1.2; TbHK1 inh: 6

What do the screens show for `COC(=O)c1nc(NC(=O)c2ccccc2Br)n[nH]1`?
TRPN1 ag: 0.7; EBV gp42 inh: -1; KCC2 mod: 0.58; Furin inh: -21; PPC-1+TRAIL kill: 4; m-calpain inh: 6; TRPML3 ag: 1.8; TbHK1 inh: 3

How did CSc1nc(-c2ccco2)nn1C(=O)c1cccs1 do in these assays?
TRPN1 ag: 1.6; EBV gp42 inh: -6; Furin inh: -19[20 µM]; PPC-1+TRAIL kill: 10; m-calpain inh: 15; TRPML3 ag: 0.7; TbHK1 inh: 1

What do the screens show for `Cc1ccc(C(=O)n2cnnc2N)cc1C`?
TRPN1 ag: -0.1; EBV gp42 inh: -11; KCC2 mod: 0.64; Furin inh: -17[20 µM]; PPC-1+TRAIL kill: -3; m-calpain inh: -16; TRPML3 ag: 0.4; TbHK1 inh: -2

What do the screens show for `CC(=O)n1nc(-c2ccco2)nc1SCc1ccccc1`?
TRPN1 ag: -0.3; EBV gp42 inh: 3; KCC2 mod: -0.76; Furin inh: -15; PPC-1+TRAIL kill: 17; m-calpain inh: 0; TRPML3 ag: -0.5; TbHK1 inh: 8

Results for Cn1c(=O)c2[nH]cnc2n(C)c1=O ?
TRPN1 ag: -0.1; EBV gp42 inh: -1; KCC2 mod: 0.89; Furin inh: -22; PPC-1+TRAIL kill: 6; m-calpain inh: 17; TRPML3 ag: 0.7; TbHK1 inh: 5

What do the screens show for `CC#C[C@]1(O)CC[C@H]2[C@@H]3CCC4=CC(=O)CCC4=C3[C@@H](c3ccc(N(C)C)cc3)C[C@@]21C`?
TRPN1 ag: 14; EBV gp42 inh: 3; KCC2 mod: -0.13; Furin inh: -15; PPC-1+TRAIL kill: 13; m-calpain inh: -26; TRPML3 ag: 5.9; TbHK1 inh: -10

What do the screens show for `CCOC(=O)c1c(C)n(C(=O)c2ccco2)c(=O)n1C(=O)c1ccco1`?
TRPN1 ag: 1.1; EBV gp42 inh: 0; Furin inh: -19; PPC-1+TRAIL kill: -13; m-calpain inh: -33; TRPML3 ag: 0.2; TbHK1 inh: -2

How did COc1ccc(C(=O)n2c(SC)nc3cc4c(cc32)OCCO4)cc1 do in these assays?
TRPN1 ag: -0.7; EBV gp42 inh: -4; KCC2 mod: -0.57; Furin inh: -11[20 µM]; PPC-1+TRAIL kill: 27; m-calpain inh: -18; TRPML3 ag: -0.6; TbHK1 inh: -2

Results for COc1ccc(S(=O)(=O)n2nc(OC(=O)c3ccco3)cc2N)cc1 ?
TRPN1 ag: 0.6; EBV gp42 inh: 4; KCC2 mod: -0.036; Furin inh: -13; PPC-1+TRAIL kill: 19; m-calpain inh: -20; TRPML3 ag: 0.3; TbHK1 inh: -1

How did COC(=O)C1=C(C)NC(C)=C(C(=O)OC)C1c1ccccc1[N+](=O)[O-] do in these assays?
TRPN1 ag: 1.1; EBV gp42 inh: -4; KCC2 mod: 17*; Furin inh: -4; PPC-1+TRAIL kill: 0; m-calpain inh: -129; TRPML3 ag: 0.8; TbHK1 inh: -8

What do the screens show for `CC(=O)c1c(OC(=O)c2ccco2)c2ccccc2n1C`?
TRPN1 ag: -1.7; EBV gp42 inh: -7; Furin inh: -15; PPC-1+TRAIL kill: 9; m-calpain inh: 12; TRPML3 ag: -0.5; TbHK1 inh: -21

How did COc1ccc(C(=O)n2nnc3ccccc32)cc1OC do in these assays?
TRPN1 ag: 0.0; EBV gp42 inh: -1; KCC2 mod: -1; Furin inh: -25; PPC-1+TRAIL kill: -2; m-calpain inh: -1; TRPML3 ag: 1.2; TbHK1 inh: -2
